High-throughput results from PubChem.
PABP FP inh: PABP poly(A) RNA binding inhibitors, primary screen, biochemical, fluorescence polarization, uHTS. Polyadenylate-binding protein 1 (Homo sapiens), P11940. inhibition, % at 35 µM. 1% of 290,000 active;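 active = 50% or more with normal probe brightness, or confirmed in later tests; inconclusive = above 50% with abnormal brightness, or retests that disagree; inactive = below 50% or failed in later tests; about a fifth of its hits are not listed in these tables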;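 note: calls also rest on retests at 20 µM and on dose response follow-up; controls were probe without protein and protein plus probe with vehicle; some compounds called inactive have numbers as strong as hits; many hits fall short of the cut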
eIF4H FP inh: human eIF4H binding inhibitors, primary screen, translation initiation inhibitor project, biochemical, uHTS, fluorescence polarization; Eukaryotic translation initiation factor 4H (Homo sapiens), Q15056; eIF4H fluorescence polarization binding assay; inhibition, % at 35 µM; 0.94% of 290,000 active; AID 2012, 2009;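 active = 50% or more with normal probe brightness, or confirmed in later tests; inconclusive = above 50% with abnormal brightness, or retests that disagree; inactive = below 50% or failed in later tests; about a fifth of its hits are not listed in these tables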;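 note: calls also rest on retests at 20 µM and on dose response follow-up; 0% = protein and probe with vehicle and 100% = probe without protein; strong numbers were not always called active; many hits fall short of the cut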
MT1-MMP act inh: blockers of MT1-MMP proenzyme processing, primary screen, HT1080 RFP-PRO-GFP cells, GFP/RFP fluorescence. Matrix metalloproteinase-14 (Homo sapiens), P50281. GFP/RFP ratio fluorescence, overnight; percent of plate control window, DMSO zero. GFP/RFP ratio change, % at 20 µM. 0.061% of 360,000 active. AID 651647, 2012;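 active = GFP/RFP ratio change of at least 30% with cell ATP level not reduced by more than half and red fluorescence within 50% of control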; note: strong numbers were not always called active
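Material – HT1080 RFP-PRO-GFP cells · Control set – DMSO wells and RFP-L50D-GFP cells · Incubation – overnight cell settling, then overnight compound exposure, 37 °C, 5% CO2 · Compound dosing – single-point 20 µM compound, 1% DMSO · Read-out – GFP/RFP fluorescence ratio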
CSC inhib: cancer stem cell viability inhibitors, primary screen, luminescence. cancer stem cell-like cells viability. inhibition, % at 7.5 µM. 1.1% of 300,000 active. AID 2717, 2010;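 active = mean at 75% or more and at least half the replicates too; inconclusive = mean and replicates disagree; tested in HMLE shEcad cells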;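 note: 0% = median of negative and 100% = median of positive control wells; the first replicate is given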
UUG fidelity: modulators of yeast start codon fidelity, primary screen, whole organism, S. cerevisiae, single point, plate reader; activity score, % at 18.7 µM; S. cerevisiae UUG-firefly luciferase reporter, luminescence/redox ratio; 0.13% of 350,000 active;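 active = replicate mean at a twofold rise or more, about +100% in these data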;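 note: firefly luciferase made from a UUG start codon reports start codon fidelity; reporter light over untreated wells divided by growth signal over untreated wells; some hits fall short of that in this replicate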
Env fusion inh: inhibitors of HIV-1 Env-driven cell-cell fusion, primary screen, HeLa-JRFL effector, CEM21 target cells, luciferase; AID 651610, 2012; 1.1% of 360,000 active; inhibition, % at 12.3 µM;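 active = mean replicate inhibition score of at least 50 and every replicate individually at or above 50; inconclusive = only one of the two criteria met; inactive = mean below 50 and not all replicates reaching 50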;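 note: 0% = plate neutral controls and 100% = maraviroc near 300 nM; one replicate is shown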
Rce1 inh: yeast Rce1p protease inhibitors, primary screen, biochemical, fluorescence, cell-free homogeneous. 0.27% of 290,000 active. CAAX prenyl protease 2 (Saccharomyces cerevisiae (strain ATCC 204508 / S288c)), Q03530. yeast membranes, quenched prenylated peptide cleavage fluorescence. calls only;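 active = fall in fluorescence gain of 50% or more versus controls, with final raw signal at or below 3038400; inconclusive = same 50% fall but final raw signal above 3038400; inactive = fall in fluorescence gain under 50%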;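 note: plate controls were neutral control wells for no effect and wells lacking membranes for full effect; tested at 10 µM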
Target sequence (Q03530 whole entry, looked up): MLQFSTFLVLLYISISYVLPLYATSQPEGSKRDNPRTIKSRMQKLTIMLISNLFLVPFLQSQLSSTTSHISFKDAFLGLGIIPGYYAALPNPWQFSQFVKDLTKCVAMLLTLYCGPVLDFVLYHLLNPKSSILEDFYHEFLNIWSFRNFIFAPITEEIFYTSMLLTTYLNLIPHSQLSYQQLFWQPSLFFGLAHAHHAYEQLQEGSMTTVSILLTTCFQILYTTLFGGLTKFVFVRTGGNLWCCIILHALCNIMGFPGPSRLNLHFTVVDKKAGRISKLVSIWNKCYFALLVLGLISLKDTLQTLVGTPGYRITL
eIF4H FP inh retest: recorded beside eIF4H FP inh, whose call it bears; inhibition, %; compound at 20 µM; confirmation average;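 mean of two retest wells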
PABP FP inh retest: second read-out of PABP FP inh, no call of its own (marks repeat the call); inhibition, %; compound at 20 µM; confirmation repeats;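 mean of two retest wells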
MT1-MMP act inh RFP: also measured in MT1-MMP act inh; calls as there; RFP signal change, %; measured here: RFP expression control read;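 0 = vehicle wells; hits needed this value within 50% of zero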
* marks the source's active call; other numbers are inactive results.

What do the screens show for `CCOc1ccc(Nc2nc3ccccc3n2C)cc1`?
MT1-MMP act inh: 4; CSC inhib: -4; UUG fidelity: -10; Env fusion inh: -76; Rce1 inh: inactive; MT1-MMP act inh RFP: 3

Results for COc1ccc(CCNC(=O)C2CCC(=O)N2Cc2ccccc2Cl)cc1OC (stereo unspecified) ?
PABP FP inh: 5; eIF4H FP inh: -11; MT1-MMP act inh: 3; CSC inhib: -8; UUG fidelity: -4; Env fusion inh: inconclusive; Rce1 inh: inactive; MT1-MMP act inh RFP: 4

What do the screens show for `Cc1occc1C(=O)NNC(=O)C(c1ccccc1)c1ccccc1`?
PABP FP inh: -13; eIF4H FP inh: -6; MT1-MMP act inh: -4; CSC inhib: -14; UUG fidelity: -14; Env fusion inh: -21; Rce1 inh: inactive; MT1-MMP act inh RFP: 2

How did Cc1ccc(C(=O)N2CCCCC2C(=O)O)cc1S(=O)(=O)N1CCCCC1 (stereo unspecified) do in these assays?
MT1-MMP act inh: -2; CSC inhib: -1; Env fusion inh: -10; MT1-MMP act inh RFP: -6

How did O=S(=O)(NCCCO)c1ccc2c(c1)Cc1cc(S(=O)(=O)NCCCO)ccc1-2 do in these assays?
PABP FP inh: -1; eIF4H FP inh: 0; MT1-MMP act inh: 0; CSC inhib: -6; UUG fidelity: 0; Rce1 inh: inactive; MT1-MMP act inh RFP: 2

How did CCCCCCOC(=O)Cc1c(C)nc(N)[nH]c1=O do in these assays?
PABP FP inh: -6; eIF4H FP inh: -8; MT1-MMP act inh: 1; CSC inhib: -13; UUG fidelity: -5; Env fusion inh: 8; Rce1 inh: inactive; MT1-MMP act inh RFP: 2

How did O=C(O)CCC(NS(=O)(=O)c1ccc(N2CCCC2=O)cc1)C(=O)O (stereo unspecified) do in these assays?
PABP FP inh: 9; eIF4H FP inh: -2; MT1-MMP act inh: -1; CSC inhib: -20; UUG fidelity: -15; Rce1 inh: inactive; MT1-MMP act inh RFP: 2

Results for COc1cccc(/C=N\n2c(C)nnc2C)c1OC ?
PABP FP inh: 2; eIF4H FP inh: 2; MT1-MMP act inh: 5; CSC inhib: -2; UUG fidelity: -21; Rce1 inh: inactive; MT1-MMP act inh RFP: 6

How did COc1ccc(-c2noc(CSc3nc4ccccc4c(=O)n3-c3ccccc3)n2)cc1OC do in these assays?
PABP FP inh: 4; eIF4H FP inh: -8; MT1-MMP act inh: -6; CSC inhib: -4; UUG fidelity: -19; Rce1 inh: inactive; MT1-MMP act inh RFP: -5

How did O=C(Nc1ccccc1)NC(Cc1ccc(O)cc1)C(=O)O (stereo unspecified) do in these assays?
PABP FP inh: 18; eIF4H FP inh: -9; MT1-MMP act inh: 1; CSC inhib: -8; Env fusion inh: -18; Rce1 inh: inactive; MT1-MMP act inh RFP: 4

Results for O=C(CN1C(=O)C2C3C=CC(C3)C2C1=O)Nc1nncs1 (stereo unspecified) ?
PABP FP inh: 21; eIF4H FP inh: 2; MT1-MMP act inh: -5; CSC inhib: -10; UUG fidelity: -18; Env fusion inh: -5; Rce1 inh: inactive; MT1-MMP act inh RFP: -1

What do the screens show for `O=C(COC(=O)/C=C/c1ccc(OC(F)F)cc1)NC1CCCCCCC1`?
MT1-MMP act inh: 2; CSC inhib: 4; Env fusion inh: -29; Rce1 inh: inactive; MT1-MMP act inh RFP: 4

Results for CCCC(=O)N1CCCC1(C)C(=O)N(C)Cc1cccc2ccccc12 (stereo unspecified) ?
MT1-MMP act inh: -1; UUG fidelity: -6; Env fusion inh: -25; MT1-MMP act inh RFP: 1

What do the screens show for `c1cncc(-c2nn3c(Cn4nnc5ccccc54)nnc3s2)c1`?
PABP FP inh: 3; eIF4H FP inh: -2; MT1-MMP act inh: -12; CSC inhib: -15; UUG fidelity: -10; Rce1 inh: inactive; MT1-MMP act inh RFP: -4

How did CC1(C)Cc2c(c(-c3ccco3)nc3sc4c(NCCN5CCOCC5)ncnc4c23)CO1 do in these assays?
PABP FP inh: -6; eIF4H FP inh: 35; MT1-MMP act inh: 5; CSC inhib: 27; Env fusion inh: -22; Rce1 inh: inactive; MT1-MMP act inh RFP: 3

Brought forward from above: four entries, then new ones.
What do the screens show for `O=C(COC(=O)/C=C/c1ccc(OC(F)F)cc1)NC1CCCCCCC1`?
MT1-MMP act inh: 2; CSC inhib: 4; Env fusion inh: -29; Rce1 inh: inactive; MT1-MMP act inh RFP: 4

Results for CCCC(=O)N1CCCC1(C)C(=O)N(C)Cc1cccc2ccccc12 (stereo unspecified) ?
MT1-MMP act inh: -1; UUG fidelity: -6; Env fusion inh: -25; MT1-MMP act inh RFP: 1

What do the screens show for `c1cncc(-c2nn3c(Cn4nnc5ccccc54)nnc3s2)c1`?
PABP FP inh: 3; eIF4H FP inh: -2; MT1-MMP act inh: -12; CSC inhib: -15; UUG fidelity: -10; Rce1 inh: inactive; MT1-MMP act inh RFP: -4

How did CC1(C)Cc2c(c(-c3ccco3)nc3sc4c(NCCN5CCOCC5)ncnc4c23)CO1 do in these assays?
PABP FP inh: -6; eIF4H FP inh: 35; MT1-MMP act inh: 5; CSC inhib: 27; Env fusion inh: -22; Rce1 inh: inactive; MT1-MMP act inh RFP: 3

Results for CCn1cc(S(=O)(=O)CC(=O)NC2CCCCC2)c2ccccc21 ?
PABP FP inh: -8; eIF4H FP inh: -2; MT1-MMP act inh: 1; CSC inhib: -19; UUG fidelity: 0; Env fusion inh: 2; Rce1 inh: inactive; MT1-MMP act inh RFP: 3

Results for O=C(CCC(=O)NNC(=O)Nc1cccc(Cl)c1)NCc1ccccc1 ?
PABP FP inh: 2; eIF4H FP inh: -1; MT1-MMP act inh: 4; CSC inhib: -1; Env fusion inh: 5; Rce1 inh: inactive; MT1-MMP act inh RFP: 1

Results for Cc1ccnc(NC(=O)CCC(=O)N(CC(=O)NCC2CCCO2)Cc2ccc(F)cc2)c1 (stereo unspecified) ?
PABP FP inh: -5; eIF4H FP inh: -11; MT1-MMP act inh: -6; CSC inhib: -13; UUG fidelity: -7; Rce1 inh: inactive; MT1-MMP act inh RFP: 2

What do the screens show for `O=C(NCCCN1CCOCC1)c1onc(CSc2ccc(F)c(F)c2)c1C(=O)NCCCN1CCOCC1`?
MT1-MMP act inh: 4; CSC inhib: -3; UUG fidelity: 4; Env fusion inh: 10; Rce1 inh: inactive; MT1-MMP act inh RFP: 2

What do the screens show for `CCC1(c2ccc(Cl)cc2)NC(=S)N(c2ccc(C)cc2)N1` (stereo unspecified)?
PABP FP inh: 0; eIF4H FP inh: 2; MT1-MMP act inh: 3; CSC inhib: 2; Env fusion inh: -206; Rce1 inh: inactive; MT1-MMP act inh RFP: 5

What do the screens show for `Cc1c(NCc2ccncc2)cccc1C(=O)O`?
PABP FP inh: 2; eIF4H FP inh: -10; MT1-MMP act inh: -3; CSC inhib: -18; UUG fidelity: -5; Env fusion inh: -9; Rce1 inh: inactive; MT1-MMP act inh RFP: -1

Results for COc1cccc2[nH]c3ccccc3c(=O)c12 ?
PABP FP inh: 6; eIF4H FP inh: -3; MT1-MMP act inh: 7; CSC inhib: -23; UUG fidelity: -7; Rce1 inh: inactive; MT1-MMP act inh RFP: -3

What do the screens show for `CC(NC(=O)c1ccncc1)C(C)(C)C` (stereo unspecified)?
PABP FP inh: -2; eIF4H FP inh: -8; MT1-MMP act inh: -6; CSC inhib: 5; UUG fidelity: -8; Env fusion inh: 13; Rce1 inh: inactive; MT1-MMP act inh RFP: -1

How did CSc1nncn1/N=C/c1cc(Cl)ccc1F do in these assays?
PABP FP inh: 3; eIF4H FP inh: -5; MT1-MMP act inh: -1; CSC inhib: -10; UUG fidelity: -10; Env fusion inh: -428; Rce1 inh: inactive; MT1-MMP act inh RFP: 2

What do the screens show for `Cn1c(=O)n(CCO)c(=O)c2c1nc(Br)n2Cc1ccccc1`?
PABP FP inh: 3; eIF4H FP inh: -8; MT1-MMP act inh: -3; CSC inhib: -9; UUG fidelity: 3; Env fusion inh: -7; Rce1 inh: inactive; MT1-MMP act inh RFP: -3

What do the screens show for `Cc1ccc(Nc2ncc3c(=O)[nH][nH]c(=O)c3n2)cc1`?
MT1-MMP act inh: 3; UUG fidelity: -22; Env fusion inh: -19; MT1-MMP act inh RFP: 2

Results for Nc1ccc(C(=O)N2CCCC2)cc1 ?
PABP FP inh: 64; eIF4H FP inh: 2; MT1-MMP act inh: 3; CSC inhib: -13; Env fusion inh: -5; Rce1 inh: inactive; eIF4H FP inh retest: -5; PABP FP inh retest: -1; MT1-MMP act inh RFP: -1

What do the screens show for `CC(=O)c1ccc(NS(=O)(=O)c2cc3c(cc2C)N(C(C)=O)CCO3)cc1`?
PABP FP inh: -4; eIF4H FP inh: 13; MT1-MMP act inh: 2; CSC inhib: -13; UUG fidelity: -9; Env fusion inh: -7; Rce1 inh: inactive; MT1-MMP act inh RFP: 5

What do the screens show for `COCCNC(=O)c1cc2sc3ccccc3c2s1`?
PABP FP inh: -7; eIF4H FP inh: -12; MT1-MMP act inh: -2; CSC inhib: 6; UUG fidelity: -16; Env fusion inh: -110; Rce1 inh: inactive; MT1-MMP act inh RFP: -3

Results for O=C(c1ccco1)N1CCCC(c2nc3c(nnn3Cc3ccc(Cl)cc3Cl)c(=O)[nH]2)C1 (stereo unspecified) ?
PABP FP inh: 20; eIF4H FP inh: 7; MT1-MMP act inh: -1; CSC inhib: -3; UUG fidelity: -1; Env fusion inh: -1; Rce1 inh: inactive; MT1-MMP act inh RFP: 2

Results for COc1ccc(Br)cc1/C=N/NC(=O)c1cccc(S(=O)(=O)N2CCOCC2)c1 ?
PABP FP inh: 3; eIF4H FP inh: -4; MT1-MMP act inh: -1; CSC inhib: -6; UUG fidelity: 15; Env fusion inh: 6; Rce1 inh: inactive; MT1-MMP act inh RFP: -1

How did O=C(Nc1ccc2sccc2c1)c1ccc(Cl)s1 do in these assays?
PABP FP inh: -3; eIF4H FP inh: -2; MT1-MMP act inh: -2; CSC inhib: -15; UUG fidelity: -21; Env fusion inh: inactive; Rce1 inh: inactive; MT1-MMP act inh RFP: 6

How did Cc1c(NC(=O)CN2CCN(c3ccccc3)CC2)c(=O)n(-c2ccccc2)n1C do in these assays?
PABP FP inh: 4; eIF4H FP inh: -6; MT1-MMP act inh: 2; CSC inhib: -3; UUG fidelity: -16; Rce1 inh: inactive; MT1-MMP act inh RFP: 4

What do the screens show for `O=C(Nc1ccc(OC(F)F)cc1)c1cc(S(=O)(=O)N2CCOCC2)ccc1N1CCCC1`?
MT1-MMP act inh: -2; UUG fidelity: -16; Env fusion inh: 7; MT1-MMP act inh RFP: -2

How did CCCCC1Cc2[nH]c(=S)[nH]c(=O)c2C(c2ccc(F)cc2)O1 (stereo unspecified) do in these assays?
MT1-MMP act inh: 1; UUG fidelity: -11; Env fusion inh: -4; MT1-MMP act inh RFP: 4

A portion of the library (hit frequency here may not be typical).
